KCNQ2 inh = KCNQ2 potassium channel inhibitors, primary screen, cell-based, CHO-K1, FluxOR thallium flux, B-score (AID 2156); 20 min; hits give low values; only compounds with negative scores are shown here; some inactives read as strong as hits; B-score at 10 µM; 310,000 tested, 1.1% active;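 active = fluorescence ratio B-score at most minus 3 library SDs, with starting brightness B-score within 2 library SDs, cut at about -5.5 in these data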
Target sequence (O88943 whole entry, looked up): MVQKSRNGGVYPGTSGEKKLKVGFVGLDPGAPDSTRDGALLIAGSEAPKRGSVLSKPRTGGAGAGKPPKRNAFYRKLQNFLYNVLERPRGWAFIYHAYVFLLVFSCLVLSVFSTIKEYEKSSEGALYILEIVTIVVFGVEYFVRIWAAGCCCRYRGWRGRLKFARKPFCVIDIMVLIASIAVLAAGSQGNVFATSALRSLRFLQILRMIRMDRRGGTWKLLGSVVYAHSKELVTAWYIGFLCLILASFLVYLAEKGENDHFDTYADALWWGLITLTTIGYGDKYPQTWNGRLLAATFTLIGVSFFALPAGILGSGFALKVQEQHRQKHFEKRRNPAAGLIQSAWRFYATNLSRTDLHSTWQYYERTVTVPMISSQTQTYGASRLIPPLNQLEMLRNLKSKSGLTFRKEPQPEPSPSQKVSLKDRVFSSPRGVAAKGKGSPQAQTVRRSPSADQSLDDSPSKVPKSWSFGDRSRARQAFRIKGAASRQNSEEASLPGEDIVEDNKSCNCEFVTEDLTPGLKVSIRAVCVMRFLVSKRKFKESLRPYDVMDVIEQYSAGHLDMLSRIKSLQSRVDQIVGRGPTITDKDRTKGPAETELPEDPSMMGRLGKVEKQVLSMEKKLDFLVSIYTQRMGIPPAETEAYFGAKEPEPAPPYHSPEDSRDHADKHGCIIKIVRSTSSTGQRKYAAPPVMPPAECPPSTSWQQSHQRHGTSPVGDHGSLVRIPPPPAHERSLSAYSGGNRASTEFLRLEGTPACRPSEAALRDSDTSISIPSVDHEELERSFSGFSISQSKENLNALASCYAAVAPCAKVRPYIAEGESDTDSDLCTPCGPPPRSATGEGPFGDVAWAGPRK
KCNQ2 inh baseline = also measured in KCNQ2 inh; calls as there; B-score; measured here: initial fluorescence intensity artifact check;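 brightness before thallium and not channel activity; 0 = typical well and far values either way flag optical interference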
An asterisk follows results filed as active; i = inactive.

molecule | KCNQ2 inh baseline | KCNQ2 inh
COc1ccc(/C=C/C(=O)OCC(=O)Nc2ccc(Cl)c(S(=O)(=O)N(C)C)c2)cc1OC | 0.61 | i
Cc1cccc(NC(=O)CSCC(=O)Nc2nnc(C3CC3)s2)c1 | -1.41 | i
O=C(Nc1cccc(O)c1)c1cccc(S(=O)(=O)Nc2cccc(O)c2)c1 | -0.39 | i
C#CCn1c(=O)c2c(ncn2C)n(C)c1=O | 0.73 | i
COc1ccc(CN(C)S(=O)(=O)c2nnc(NC(=O)c3cccc(C)c3)s2)cc1OC | -2.04 | i
CCn1c2ccccc2c2cc(NC(=O)CSc3nnc(-c4ccc(OC)cc4)n3N)ccc21 | 2.15 | i
O=c1cc(-c2ccccc2)nc(SCc2ccc(F)cc2)[nH]1 | -0.53 | i
Cc1cc2oc3c(c(=O)c2cc1C)C(c1cccc(Br)c1)N(Cc1ccco1)C3=O (configuration not stated) | -0.68 | i
Cc1ccc(CNC(=O)CCC(=O)N2CC(C)Oc3ccccc32)cc1 (configuration not stated) | -1.77 | i
CC[n+]1c(/C=C2\C=C(C)CC(C)(C)C2)sc2ccccc21 | -0.93 | i
Cc1ccc(S(=O)(=O)N2CCN(C(=O)N3CCCC3)CC2)cc1 | -1.47 | i
O=C(CCc1nnc2ccc(N3CCC4(CC3)OCCO4)nn12)NCc1ccccc1Cl | -0.3 | i
On1c(-c2ccc(Cl)cc2Cl)nc2ncccc21 | 2.89 | i
CN(CC(=O)Nc1ccc(Cl)c(Cl)c1)C(=O)CC1OC(=O)c2ccccc21 (configuration not stated) | -2.69 | i
Cc1cccc(CCNC(=O)C2CCN(S(=O)(=O)c3cccc4cccnc34)CC2)c1 | 0.17 | i
COc1ccccc1CNC(=O)c1ccc2nc(N3CCOCC3)sc2c1 | 0.11 | i
O=C(COC(=O)c1cc([N+](=O)[O-])ccc1Cl)NC1CCCC1 | 3.48 | i
COC(=O)c1nnn(-c2nonc2N)c1CSc1ccc(Cl)cc1 | -1.49 | i
O=[N+]([O-])c1ccc(S(=O)(=O)Nc2cccc(-c3ccc(N4CCOCC4)nn3)c2)cc1 | -0.31 | i
c1ccc(C(c2ccccc2)N2CCN(Cc3nnnn3C3CCCC3)CC2)cc1 | -1.72 | i
O=C1N=c2ccc([N+](=O)[O-])cc2=C1c1sc(=O)[nH]c1O | -0.66 | i
O=C(O)C1C2C=CC(C2)C1C(=O)N1CCOCC1 (configuration not stated) | 0.9 | i
O=C(NC1CCCC1)c1ccccc1OCc1ccccc1 | -2.61 | i
Cc1cc2cc3c(C)cc(=O)oc3c(C)c2o1 | 0.8 | i
CCC(=O)N(CCc1ccc(OC)c(OC)c1)Cc1cc2ccc(C)cc2n2nnnc12 | -0.17 | i
Cc1n[nH]c(C)c1Sc1ccccc1N=Cc1cc(Cl)cc([N+](=O)[O-])c1O | -1.56 | i
CCC1CCCCN1Cc1nc2c(c(=O)n(C)c(=O)n2C)n1CCCc1ccccc1 (configuration not stated) | 1.36 | i
Cn1nc(C(=O)Nc2nc3ccccc3[nH]2)c2ccccc2c1=O | 1.09 | i
Cc1ccc(CSC2=Nc3ccccc3C3=NC(CCC(=O)NCc4ccco4)C(=O)N23)cc1 (configuration not stated) | -0.93 | i
CN(C)S(=O)(=O)c1ccc(C(=O)NC2CCCc3ccccc32)cc1 (configuration not stated) | -0.49 | i
COC(=O)c1ccc(/C=N/Nc2nc(C)c(C)s2)cc1 | 1.31 | i
Cc1ccccc1OCC(=O)N/N=C/c1ccc(N(C)C)cc1 | -0.7 | i
COc1cc(CNC2CCCCC2OC)cc(OC)c1 (configuration not stated) | -0.4 | i
COc1ccc2c(c1)[nH]c1c(N3CCN(Cc4ccc5c(c4)OCO5)CC3)ncnc12 | -1.01* | -8.09*
COc1cc(C2Nc3ccccc3C(=O)N2c2ccccc2)ccc1O (configuration not stated) | 1.7 | i
CC1=C(C(=O)OCc2ccc([N+](=O)[O-])cc2)N2C(=O)C(NC(=O)Cc3ccccc3)C2SC1 (configuration not stated) | 1.79 | i
COc1ccc(NC(=S)NCCCN2CCOCC2)cc1 | -0.26 | i
O=C(CCc1nnc2ccc(NCc3ccccc3)nn12)NC1CCCC1 | 0.63 | i
O=C(Nc1ccccc1)/C(=C\c1ccc(F)cc1)NC(=O)c1ccco1 | 0.81 | i
OCCNc1nc2nonc2nc1NCCO | -0.31 | i
Cc1ccc(C)c(-c2nnc(NC(=O)CCS(=O)(=O)c3ccc(F)cc3)o2)c1 | 0.84 | i
CCN(CC(=O)Nc1ccc(NC(C)=O)cc1)CC(=O)Nc1ccccc1C(=O)c1ccccc1 | 1.87 | i
C[C@H](/C=C/[C@@]1(O)[C@H](C)C[C@H](O)CC1(C)C)O[C@@H]1O[C@H](CO)[C@@H](O)[C@H](O)[C@H]1O | -0.62 | i
O=C(O)C1C2C=CC(C2)C1C(=O)N1CCN(C/C=C/c2ccccc2)CC1 (configuration not stated) | -0.44 | i
Cc1cc(C)c2nc(-c3ccccn3)cc(C(=O)NCCc3ccc(S(N)(=O)=O)cc3)c2c1 | 0.2 | i
BrC(=C\c1ccccc1)/C=N/N1CCN(Cc2ccccc2)CC1 | 1.25 | i
CC(CCc1ccccc1)NC(=O)CNC(=O)COc1ccccc1 (configuration not stated) | 2 | i
N#CCSc1nnc(Cc2cccs2)n1C1CCCCC1 | -0.14 | i
C(=N\Nc1nc2ccccc2s1)/c1cccs1 | 2.07 | i
NS(=O)(=O)c1ccc(CNC(=S)Nc2ccc(F)c(Cl)c2)cc1 | 0.11 | i

Exported with values ahead of the structure: 13 of the compounds above
KCNQ2 inh baseline	KCNQ2 inh	SMILES
1.31	i	COC(=O)c1ccc(/C=N/Nc2nc(C)c(C)s2)cc1
-0.7	i	Cc1ccccc1OCC(=O)N/N=C/c1ccc(N(C)C)cc1
-0.4	i	COc1cc(CNC2CCCCC2OC)cc(OC)c1 (configuration not stated)
-1.01*	-8.09*	COc1ccc2c(c1)[nH]c1c(N3CCN(Cc4ccc5c(c4)OCO5)CC3)ncnc12
1.7	i	COc1cc(C2Nc3ccccc3C(=O)N2c2ccccc2)ccc1O (configuration not stated)
1.79	i	CC1=C(C(=O)OCc2ccc([N+](=O)[O-])cc2)N2C(=O)C(NC(=O)Cc3ccccc3)C2SC1 (configuration not stated)
-0.26	i	COc1ccc(NC(=S)NCCCN2CCOCC2)cc1
0.63	i	O=C(CCc1nnc2ccc(NCc3ccccc3)nn12)NC1CCCC1
0.81	i	O=C(Nc1ccccc1)/C(=C\c1ccc(F)cc1)NC(=O)c1ccco1
-0.31	i	OCCNc1nc2nonc2nc1NCCO
0.84	i	Cc1ccc(C)c(-c2nnc(NC(=O)CCS(=O)(=O)c3ccc(F)cc3)o2)c1
1.87	i	CCN(CC(=O)Nc1ccc(NC(C)=O)cc1)CC(=O)Nc1ccccc1C(=O)c1ccccc1
-0.62	i	C[C@H](/C=C/[C@@]1(O)[C@H](C)C[C@H](O)CC1(C)C)O[C@@H]1O[C@H](CO)[C@@H](O)[C@H](O)[C@H]1O

(continued)
molecule | KCNQ2 inh baseline | KCNQ2 inh
COc1cccc(/C=C/C(=O)OCC(=O)NCCC2=CCCCC2)c1 | 0.37 | i
CC(C)Cn1c2c(c(O)c(C(=O)Nc3nccs3)c1=O)CCCC2 | 0.02 | i
O=C(Nc1cccc(F)c1)C1CCCN(S(=O)(=O)c2cnc[nH]2)C1 (configuration not stated) | 0.72 | i
CCOc1ccccc1N(CC(=O)NC1CCCCC1)S(=O)(=O)c1ccc(C)cc1 | 2.28 | i
Cc1ccccc1/C=C\c1nc2ccccc2c(=O)n1Cc1ccccc1 | 0.24 | i
O=C(O)CCN1C(=O)C2C3C=CC(C3)C2C1=O (configuration not stated) | -0.89 | i
O=[N+]([O-])c1ccc(S(=O)(=O)N2CCN=C2SCc2cccnc2)cc1 | 0.08 | i
COc1c(C)cc(Br)cc1C(=O)Nc1ccc(Cc2ccncc2)cc1 | 0.98 | i
CC1(C)Cc2ccccc2-c2nnc(SCC(=O)N3CCc4ccccc43)n21 | 0.7 | i
COc1ccc(-n2c(N3CCN(C)CC3)nc3sc4c(c3c2=O)CCCCC4)cc1 | 1.38 | i
O=C(COc1ccccc1)Nc1ccccc1C(=O)NCc1ccco1 | 0.07 | i
O=C(c1cc2nc(C3CC3)cc(C(F)(F)F)n2n1)N1CCCC1 | -0.18 | i
O=C(c1ccccc1)c1ccc(OCC(O)CNC2CCCc3ccccc32)cc1 (configuration not stated) | 1.01 | i
Cc1ccccc1NC(=O)CSc1nnc(-c2ccco2)c(-c2ccco2)n1 | -2.45 | i
Cc1ccc(-c2nnn(CC(=O)N(Cc3ccco3)C(C(=O)NC(C)(C)C)c3ccncc3)n2)o1 (configuration not stated) | 0.2 | i
CCCN1CCN(C(=O)Nc2cccc(C(F)(F)F)c2)CC1 | 0.24 | i
O=C(Oc1cccc(NC(=O)c2cccs2)c1)c1cccc(S(=O)(=O)N2CCCC2)c1 | -2.23 | i
Cc1c(C)c2ccc(OC(C)C(=O)NCc3ccccn3)cc2oc1=O (configuration not stated) | 0.11 | i
CCOC(=O)Cn1cc(/C=C/[N+](=O)[O-])c2ccccc21 | 1.55 | i
CCOC(=O)N[C@H](Cc1c[nH]c2ccccc12)C(=O)NC1CC1 | -0.18 | i
COc1cccc(CNc2ccc(F)c(Cl)c2)c1O | 0.03 | i
Cc1ccc(NC(=S)N/N=C2/CCCc3c(C)cc(C)cc32)cc1 | -1.55 | i
Cc1ccc2nc(C)cc(C(=O)N3CCCC(CO)(Cc4ccccc4C)C3)c2c1 (configuration not stated) | -0.54 | i
CCOc1cc(CNc2ccccc2)cc(Br)c1OCC(=O)NC(C)(C)C | -0.13* | -5.94*
CCc1cccc(C)c1NS(=O)(=O)c1cccs1 | -0.49 | i
CCOC(=O)c1c(NC(=O)CSc2nnc(-c3ccccc3)o2)sc(C(C)=O)c1C | 0.52 | i
CCCC(=O)C1=C(O)C(C(=O)OC)C(C)(C)CC1=Nc1ccc(Br)cc1 (configuration not stated) | 2.36 | i
CN(C)c1ccc(/C=N/NC(=O)CN(c2ccccc2Cl)S(C)(=O)=O)cc1Br | 0.02 | i
Cc1ccc(C2CC(c3cccs3)=NN2C(=O)CSC2=NN3CCCC(=O)N=C3S2)cc1 (configuration not stated) | 2.37 | i
CC1=C(C(=O)OCC2CCCO2)C(c2ccccc2OC(C)C)C2=C(CC(c3ccco3)CC2=O)N1 (configuration not stated) | 0.87 | i
COc1cc2c(cc1OC)CN(Cc1ccc(OC)c(C)c1OC)CC2 | 0.65 | i
Cc1cc2nc(C3CCN(C(=S)NCC(C)C)CC3)[nH]c2cc1C | 0.74 | i
c1ccc(CCCCNCC2COc3ccccc3O2)cc1 (configuration not stated) | -0.88 | i
CCOC(=O)c1c(C)n(C)c2cc(Br)c(C)cc12 | 0.02 | i
O=S(=O)(NC1CC1)c1ccc(S(=O)(=O)N2CCN3CCCC3C2)cc1 (configuration not stated) | -0.06 | i
COc1cccc(-c2cc(C(=O)N3CCN(c4ccccc4OC)CC3)no2)c1 | -1.35 | i
CCOC(=O)n1c(=O)n(Cc2c(Cl)cccc2Cl)c2ccccc21 | 0.19 | i
CCCc1cc(=O)n2[nH]c(-c3cc(OC)c(OC)c(OC)c3)nc2n1 | -0.1 | i
Cc1cc(S(=O)(=O)N2CCOCC2)ccc1OCC(=O)NCc1ccco1 | -0.3 | i
COC(=O)c1c(NC(=O)COC(=O)Cn2cnc3ccccc32)sc(C)c1C | 0.64 | i
Cc1ccc(S(=O)(=O)N2CCCC(C(=O)NCC3CCCO3)C2)cc1 (configuration not stated) | 0.71 | i
CCn1cc(C(=O)OCC(=O)Nc2c(C)cccc2C)c(=O)c2ccc(C)nc21 | -0.06 | i
COc1ccc(C(=O)Nc2cc3c(cc2OC)CCCC3)cc1Br | -1.71 | i
COc1cc2[nH]c(=O)n(CCCC(=O)NCCc3ccccc3)c(=O)c2cc1OC | 0.63 | i
O=S(=O)(NCCOc1ccccc1Cl)c1ccc2oc3ccccc3c2c1 | -1.4* | -6.78*
CNC(=O)c1c(NC(=O)c2ccc(S(=O)(=O)N3CC(C)OC(C)C3)cc2)sc2c1CCN(C(C)C)C2 (configuration not stated) | 0.06 | i
Cc1cc2oc3c(c(=O)c2cc1C)C(c1ccc(C(C)C)cc1)N(CCCN1CCOCC1)C3=O (configuration not stated) | 0.88 | i
CCOc1ccc(C2C(=O)N(C3CCCCC3)CC(=O)N2CC2CCCO2)cc1OC (configuration not stated) | -0.66 | i
CC(C)CC(NC(=O)c1ccc(C#CC(C)(C)O)s1)C(=O)O (configuration not stated) | 1.29 | i
Cc1nn(Cc2noc(C(=O)NCc3ccccn3)n2)c(C)c1Br | 0.51 | i

Other compounds follow:
molecule | KCNQ2 inh baseline | KCNQ2 inh
COC(=O)c1c(-c2ccc(C)cc2)csc1N | 0.73 | i
COc1ccc(N2C(=NC(=O)C3CCCCC3)SC3CS(=O)(=O)CC32)cc1Cl (configuration not stated) | 0.19 | i
O=C(COC(=O)c1c(Cl)cccc1Cl)Nc1ccccc1Br | -0.57 | i
Cc1ccc(CNC(=O)CS(=O)(=O)c2cn(CC(=O)N3CCOCC3)c3ccccc23)cc1 | -1.64 | i
CCCc1nc2ccccc2c(=O)n1NC(=O)c1c(O)c2ccccc2n(C)c1=O | 0.72 | i
C=CCn1c(SCC(=O)Nc2nc(C)cs2)nnc1C(NC(=O)c1ccccc1)C(C)C (configuration not stated) | -0.8 | i
Cc1onc(-c2ccccc2Cl)c1C(=O)Nc1cnn(Cc2ccccc2)c1 | -0.71 | i
CC(Sc1ccccc1)C(=O)N1CCN(S(=O)(=O)c2ccc(Cl)cc2)CC1 (configuration not stated) | 0.98 | i
O=C(COc1ccccc1)Nc1nnc(S(=O)(=O)N2CCCC2)s1 | 0.58 | i
COc1ccc(CN2C(=NC(=O)c3ccccc3)SC3CS(=O)(=O)CC32)cc1OC (configuration not stated) | -0.49 | i

Bioassay records: PubChem BioAssay, Johns Hopkins Ion Channel Center

Not all compounds are listed; the hit share may differ from the screen's.
